Cruzain inh Det: blocks cruzain activity in presence of Triton detergent; P25779; Potency, µM, without a hit: max response, negative = inhibition, actives largely listed as inhibitors; actives 0.43% (n = 200,000); purified cruzain, Z-FR-AMC fluorescence, 0.01% Triton; active means well fitted curve in the direction sought with a large enough effect; inconclusive means small, poorly fitted or top-dose-only effect, or another doubt; inactive means no such curve, though single readings can be large; an effect the other way counts as inactive or inconclusive;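 further: plate controls were neutral wells for no effect and buffer without enzyme for full effect; nearly all actives have a fitted effect of over 40% in size; top concentration of the series not given in the record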
Target sequence (P25779 123-467 limits assumed): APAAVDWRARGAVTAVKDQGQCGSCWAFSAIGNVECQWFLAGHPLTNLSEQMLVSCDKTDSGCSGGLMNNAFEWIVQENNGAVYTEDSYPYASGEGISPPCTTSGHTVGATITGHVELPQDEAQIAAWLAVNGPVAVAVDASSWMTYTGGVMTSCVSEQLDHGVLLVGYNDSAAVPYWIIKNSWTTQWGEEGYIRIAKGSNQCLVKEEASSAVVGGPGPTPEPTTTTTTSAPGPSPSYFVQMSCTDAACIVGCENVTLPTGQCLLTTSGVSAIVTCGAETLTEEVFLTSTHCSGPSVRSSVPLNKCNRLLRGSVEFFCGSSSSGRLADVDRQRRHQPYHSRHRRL
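Compounds were screened in titration against cruzain (1.5 nM) with 0.01% Triton X-100 to counter colloidal aggregation. Activity was the AMC fluorescence increase over 60 s after adding 2 uM Z-FR-AMC at pH 5.5.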
SARS PLP yeast: inhibitors of SARS-CoV papain-like protease in yeast | AID 485353 | S. cerevisiae expressing SARS-CoV PLpro, growth rescue; control for the full effect not named in the record | actives 0.19% (n = 330,000) | Potency, µM (doses to about 32.9 µM), for the others: at the top dose activity, positive = growth rescue; further: 0% is about no effect; nearly all actives have a fitted effect of over 55% in size; growth read by luminescence after 48 h
RE007 growth inh: less growth of the S. pombe RE007 Vpr strain | Potency, µM (doses to about 92.2 µM), without a hit: at the top dose activity change, negative = less growth | actives 0.21% (n = 360,000) | S. pombe RE007 Vpr strain, BacTiter-Glo ATP luminescence, 24 h; control for the full effect not named in the record; active = well fitted falling curve with a large enough effect; inconclusive = small, poorly fitted or top-dose-only effect; inactive = no such curve, though single readings can be large or run the other way;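 further: on the % scale 0 is the no-effect control and ±100 the full control effect; nearly all actives have a fitted effect of over 50% in size; the assay follows cell death caused by Vpr and the record does not say whether a fall means rescue or toxicity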
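Fission yeast RE007 carrying one integrated HIV-1 vpr copy, seeded at OD 0.01 in PMG+AL medium with 23 nL pinned compound. Grown 24 h at 30 degrees; viability read by BacTiter-Glo luminescence after 5 min.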
LASV entry inh: blocks Lassa virus binding to or entry into cells; Lassa virus pseudotype entry inhibition, cell reporter; control for the full effect not named in the record; Potency, µM (highest dose often 37.9 µM), inactives show at the highest dose activity change, negative = inhibition, usual class: inhibitors; actives 1.2% (n = 300,000); active means well fitted inhibition curve with a large enough effect; inconclusive means small, poorly fitted or top-dose-only effect, or effect the other way; inactive means flat fitted curve, though single readings scatter; tested in HEK293 cells; further: on the % scale 0 is the no-effect control and ±100 the full control effect; nearly all actives have a fitted effect of over 50% in size; luciferase read-out
MARV entry inh: inhibitors of Marburg virus binding or cell entry; Marburg virus pseudotyped entry inhibition, cell reporter; control for the full effect not named in the record; about a third of the inactives were read at about 46 µM; actives 1.8% (n = 300,000); AID 540276; Potency, µM (top dose mostly 37.8 µM), inactives show top-dose activity change, negative = inhibition, usual class: inhibitors; active = well fitted inhibition curve with a large enough effect; inconclusive = small, poorly fitted or top-dose-only effect, or effect the other way; inactive = flat fitted curve, though single readings scatter; tested in HEK293 cells; about a fifth of its hits are not listed in these tables; further: on the % scale 0 is the no-effect control and ±100 the full control effect; luciferase read-out
2A StopGo: FMDV 2A StopGo reporter, luciferase signal; human cells with a luciferase reporter of 2A StopGo recoding; control for the full effect not named in the record; Potency, µM (series often up to 57.9 µM), without a hit: at the top dose signal change, negative = less light; actives 1.2% (n = 410,000); active = well fitted falling curve with a large enough effect; inconclusive = small, poorly fitted or top-dose-only effect; inactive = no such curve, though single readings can be large or run the other way; tested in HEK293T cells; further: on the % scale 0 is the no-effect control and ±100 the full control effect; nearly all actives have a fitted effect of over 45% in size; luciferase light after 4 h
NS1 inh: blocks influenza NS1 protein function. Potency, µM (top dose mostly 46.1 µM), inactives show at the highest dose activity, positive = more growth. actives 0.4% (n = 270,000). S. cerevisiae slowed by influenza A NS1, growth recovery by OD600; further: actives are rising curves; nearly all actives have a fitted effect of over 50% in size
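OD600 was taken as the measure of yeast growth restored by compound in an NS1-expressing S. cerevisiae strain. Cells had been washed out of glucose medium and diluted 1:100 into galactose -URA medium, pH 6.0.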
Cruzain inh noDet: inhibitors of Trypanosoma cruzi cruzain without detergent. P25779. purified cruzain, Z-FR-AMC fluorescence, no detergent. Potency, µM, inactives show max response, negative = inhibition, actives largely listed as inhibitors. actives 2.3% (n = 200,000). AID 1476; active means well fitted curve in the direction sought with a large enough effect; inconclusive means small, poorly fitted or top-dose-only effect, or another doubt; inactive means no such curve, though single readings can be large; an effect the other way counts as inactive or inconclusive;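 further: plate controls were enzyme without inhibitor for no effect and buffer without enzyme for full effect; nearly all actives have a fitted effect of over 40% in size; top concentration of the series not given in the record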
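Purified cruzain at 1.5 nM, pre-incubated 15 min with compound at room temperature in 100 mM sodium acetate pH 5.5, 5 mM DTT, 0.00005% Triton X-100. Reaction started with 2 uM Z-FR-AMC; AMC fluorescence increase over 60 s gives rate.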
An asterisk follows results filed as active; u = inconclusive; x = not tested or not shown; & = joins results of further samples; [ ] = dose if it differs, or a comment. Unless noted, the call rests on the fitted dose curve; in most records, active means well fitted rising curve with a large enough effect; inconclusive means small, poorly fitted or top-dose-only effect; inactive means no such curve, though single readings can be large or run the other way. Potency means the concentration at half of the fitted maximal effect.

SMILES | Cruzain inh Det | SARS PLP yeast | RE007 growth inh | LASV entry inh | MARV entry inh | 2A StopGo | NS1 inh | Cruzain inh noDet
Cc1cc(C)cc(OCCNC(=O)c2cc(S(=O)(=O)N3CCOCC3)ccc2F)c1 | x | -2.6% | 4.2% | x | u | -19.7% | -4.7% | x
NNC(=O)c1cc(-c2cccs2)nc2ccccc12 | x | -1.3% | -8.9% | x | x | -2.3% | 17.9% | x
COc1cc2c(cc1OC)-c1cc(Nc3ccc(C(=O)O)cc3)nc(=O)n1CC2 | x | -1.6% | 5.1% | u | -2.2% | -9.0% | 4.3% | x
Cn1ncc(Br)c1N1C(=O)CCC1=O | x | -1.9% | 8.7% | 7.5%[46.1 µM] | 29.2%[46.1 µM] | 40.9%[activator] | 5.3% | x
CCOC(=O)c1nsnc1NCCSC(=N)N | -3.5% | 14.7% | 3.7% | 4.8% | 1.9% | -5.8% | 13.8% | -6.3%
O=C1OCCN1C(=O)[C@H]1[C@H](c2ccc([N+](=O)[O-])cc2)C(c2ccc(F)cc2)=NN1c1ccccc1 | 4.3% | 17.4% | 1.9% | x | x | u | x | u
CC(C)Sc1nnc([C@H](Cc2c[nH]c3ccccc23)NC(=O)OC(C)(C)C)o1 | -5.0% | -3.8% | 13.0% | u | u | 1.1% | -6.2% | 6.1%
CCOC(=O)C1=C(C)OC(N)=C(C#N)C1c1ccccc1 (stereo unspecified) | x | -1.9% | -9.6% | x | x | -5.4% | 0.6% | x
Cc1nn(CCCC(=O)NCc2ccc(F)cc2)c(=O)c2c1sc1ccccc12 | -2.6% | x | x | u | u | -23.3% | x | u
Cc1cc(C)n(CC(=O)NNC(=O)CCCOc2ccc(Cl)c(C)c2)n1 | x | u | -6.3% | 1.3% | 6.8% | -24.1% | -0.4% | x
COc1cccc(NC(=O)CN(C)S(=O)(=O)c2ccc(C)cc2)c1 | -0.4% | 0.5% | 12.0% | 13.0% | 0.9%[46.1 µM] | -13.7% | -25.9% | -0.6%
O=C(CSc1n[nH]c(=O)n1Cc1ccco1)N1CCOCC1 | x | -0.6% | 0.7% | 15.2% | 2.6%[46.1 µM] | -15.2% | 0.0% | x
CCOC(=O)C1CCN(c2c(N3CCN(Cc4ccccc4)CC3)c(=O)c2=O)CC1 | -2.4% | -0.3% | 3.0% | x | -0.7% | -6.6% | 1.4% | 10.2%
Cc1ccc(N(Cc2ccccc2)C(=O)c2cc(S(=O)(=O)N3CCOCC3)ccc2N2CCCC2)cc1 | x | 3.2% | -13.2% | u | u | 1.0% | x | x
CC1=C(c2ccc(C)c(C)c2)S(=O)(=O)N(Cc2ccc(C(=O)Nc3cc(F)ccc3F)cc2)C1=O | -0.2% | x | x | -11.0%[46.1 µM] | x | -28.9% | x | 3.0%
Cc1ccc(-n2c(C)nn(CC3CC3)c2=O)cc1 | x | 12.9% | -7.2% | 2.6% | 0.4%[46.1 µM] | 23.9% | 6.3% | x
O=C(NNC(=O)c1cccnc1)NC12CC3CC(CC(C3)C1)C2 | -1.2% | 4.9% | 5.4% | 4.9% | 2.5% | 17.0% | 1.4% | -0.6%
CCC(C)C(NC(=O)C1CCC(=O)N1C(=O)OCc1ccccc1)C(=O)NC(C(=O)N1CCCC1C(N)=O)C(C)CC (stereo unspecified) | x | 1.2% | 11.8% | -15.3% | 2.7%[46.1 µM] | 29.6% | -3.1% | x
CN(C)c1ccc(C(=O)C(O)c2ccc(C(C)(C)C)cc2)cc1 (stereo unspecified) | -12.7% | 3.0% | 16.8% | u | -27.6% | -4.6% | 22.7% | -0.1%
Cc1cc(C)c(OCC(=O)N2CC=C(c3ccccc3)CC2)c(C)c1 | x | -8.6% | -6.9% | x | x | 0.0% | 0.8% | x
CCN(c1ccc2c(c1)OCO2)S(=O)(=O)c1cc(Br)cc2c1N(C(=O)C1CC1)CC2 | 1.0% | -30.9% | 0.7% | 1.9% | u | 25.3% | -32.0% | -18.3%
CC1CCN(C(=O)C(C)NCc2ccc(F)cc2)CC1 (stereo unspecified) | x | 5.5% | -22.4% | 19.8%[46.1 µM] | 16.9%[46.1 µM] | -0.3% | 9.1% | x
COc1ccc(OCCC(=O)OCC(=O)NCc2ccccc2)cc1 | 0.2% | 6.9% | 6.0% | 5.6% | 1.7% | -1.7% | -3.1% | 0.2%
Clc1cccc2sc(N3CCOCC3)nc12 | x | x | -12.6% | u | -11.5%[46.1 µM] | 70.2%[activator] | 3.7% | x
COc1ccc(-c2c(C)nn3c(N)c(-c4ccccc4)cnc23)cc1OC | x | -2.3% | -12.0% | x | x | 13.5% | -7.5% | x
CCC(C(=O)Nc1ccc(C(=O)N2CCCC2)cc1)c1ccccc1 (stereo unspecified) | x | 1.2% | 6.1% | x | 1.5%[46.1 µM] | 1.4% | x | x
C=CCOc1ccc(/C=C/C(=O)OCC(=O)NCC(=O)Nc2c(C)cc(C)cc2C)cc1 | x | -3.6% | -7.2% | 7.5% | 11.4% | -18.5% | x | x
Cc1ccccc1N1CC(C(=O)Nc2ccc(S(=O)(=O)NCC3CCCO3)cc2)CC1=O (stereo unspecified) | x | -0.4% | 7.7% | 7.7% | 9.7%[46.1 µM] | -7.4% | 0.5% | x
Cc1ccc2c(c1)C(=O)CC(O)(C(F)(F)F)O2 (stereo unspecified) | x | -0.7% | 3.5% | 7.6% | -10.1% | -14.3% | -2.9% | x
O=C1Nc2ccc(F)cc2C12SCCS2 | -1.3% | 3.1% | 9.8% | u | -7.8% | -4.1% | 6.4% | 2.2%
CCc1ccc(C(=O)c2cn(CC(=O)Nc3cc(F)ccc3F)c3nc(C)ccc3c2=O)cc1 | -3.1% | x | x | -5.6%[46.1 µM] | x | -19.0% | x | -10.0%
CCc1ccccc1NC(=O)CCNC(=O)Cn1ccc2ccccc2c1=O | x | 1.1% | -14.9% | x | 0.1%[46.1 µM] | -9.8% | 9.3% | x
Cc1ccc(NC(=O)c2c(-c3ccccc3Cl)noc2C)nc1 | x | -1.8% | -4.8% | -0.7%[46.1 µM] | -8.1%[46.1 µM] | -17.4% | -7.2% | x
O=C(Nc1cccc(-c2nc3ccccc3o2)c1)c1ccc(N2C(=O)C3C4C=CC(C4)C3C2=O)cc1 (stereo unspecified) | -6.0% | -6.6% | -7.2% | u | u | 31.6µM* | 3.3% | -20.1%
Cc1c(C)c2ccc(OCC(=O)N3CCN(c4cccc(Cl)c4)CC3)cc2oc1=O | x | 7.1% | 6.0% | x | x | u | -4.2% | x
O=C(O)COc1ccccc1/C=N/NC(=O)CN1CCN(S(=O)(=O)c2ccc(Br)cc2)CC1 | x | 1.2% | -1.6% | 3.9% | 3.9%[46.1 µM] | -2.6% | 9.9% | x
NC(=O)c1cc2cc(Cl)ccc2oc1=Nc1cccc(C(F)(F)F)c1 | 0.7% | -19.7% | 5.8% | -18.1% | 4.2% | -5.2% | -5.5% | -23.4%
COc1ccc(-n2nnnc2C2CCN(S(=O)(=O)c3cccc(Cl)c3C)CC2)cc1 | -2.3% | x | x | 7.4%[46.1 µM] | 4.9%[46.1 µM] | -23.0% | x | 12.8%
Cc1ccc(C(OC(=O)c2ccco2)C(=O)NC2CCCCC2)cc1 (stereo unspecified) | -5.5% | -4.2% | -1.2% | 13.3% | -2.8% | 14.9% | 8.1% | -3.2%
C=CCN(CC=C)C(=S)NC(=O)c1ccc(OC)c(Br)c1 | -4.1% | -5.1% | u | -25.9% | u | x | -60.1% | -15.8%
COc1ccc(S(=O)(=O)NCc2nc3nc(C)cc(C)n3n2)cc1OC | -0.6% | -2.2% | 5.8% | 4.0%[46.1 µM] | 25.0%[46.1 µM] | 0.0%&-24.3% | -2.3% | -2.7%
O=C(CNS(=O)(=O)c1ccccc1)NCC(=O)N1CCCCC1 | x | x | 3.1% | 16.6% | 6.0% | 11.3% | -1.9% | x
O=C(NCc1cccnc1)c1ccc(NC(=O)c2cccc([N+](=O)[O-])c2)cc1 | x | -0.6% | -8.9% | -0.3% | 1.1%[46.1 µM] | -18.4% | -2.3% | x
O=C(CNC(=O)C12CC3CC(CC(C3)C1)C2)N/N=C\c1ccccn1 | x | 1.1% | -3.9% | 16.8% | 8.1% | -19.4% | 2.0% | x
CN1CCN(S(=O)(=O)c2ccc(-c3ccc(Cl)cc3)cc2)CC1 | 0.1% | 0.1% | 12.3% | 36.4%[14.3 µM] | u | 9.8% | 4.1%[9.22 µM] | -5.0%
Cc1ccc(CN(C)Cc2cc(=O)oc3cc(C)c(Cl)cc23)cc1 | x | -2.0% | -5.2% | x | x | -18.8% | -3.0% | x
COC(=O)c1sccc1NC(=O)Nc1ccc(C)cc1C | x | -0.5% | -5.2% | x | x | 0.0% | -53.7% | x
CCC(=O)N1CCc2cc(S(=O)(=O)CCC(=O)N3CCN(c4cccc(C)c4C)CC3)ccc21 | -0.7% | x | x | 14.7%[46.1 µM] | 1.1%[46.1 µM] | 1.4% | x | -7.0%

Exported with values under each structure: part of the list above
Values run as follows: Cruzain inh Det	SARS PLP yeast	RE007 growth inh	LASV entry inh	MARV entry inh	2A StopGo	NS1 inh	Cruzain inh noDet
- CCN(c1ccc2c(c1)OCO2)S(=O)(=O)c1cc(Br)cc2c1N(C(=O)C1CC1)CC2
 : 1.0%	-30.9%	0.7%	1.9%	u	25.3%	-32.0%	-18.3%
- Cc1ccc(-n2c(C)nn(CC3CC3)c2=O)cc1
 : x	12.9%	-7.2%	2.6%	0.4%[46.1 µM]	23.9%	6.3%	x

The results go on.
SMILES | Cruzain inh Det | SARS PLP yeast | RE007 growth inh | LASV entry inh | MARV entry inh | 2A StopGo | NS1 inh | Cruzain inh noDet
CSC(SC)=C(C#N)C(=O)c1ccccc1 | x | -0.2% | 16.2% | u | 3.7%[46.1 µM] | 15.8µM* | -32.2% | x
Cc1ccc(-c2csc(NC(=O)c3ccccc3Cl)c2C(=O)O)cc1 | x | -1.3% | 4.5% | -23.3%[46.1 µM] | u | -4.5% | -1.4% | x
O=C(c1ccc(Cl)cc1)N1CCCCC1CCN1CCOCC1 (stereo unspecified) | 0.4% | x | x | u | 14.9%[46.1 µM] | 5.5% | x | -20.5%
O=C(OCCN1CCOCC1)c1cccc(F)c1 | x | 6.7% | 8.1% | u | 0.0% | 23.3% | 4.4% | x
